GLA inh pH 4.5: inhibitors of human alpha-galactosidase A at pH 4.5; purified enzyme, 4-MU-alpha-Gal fluorescence, pH 4.5; 230,000 tested, under 10 active; AID 1467; activity change, negative = inhibition, % at 105 µM; P06280; inconclusive = small, poorly fitted or top-dose-only inhibition, or a rising curve; inactive = flat fitted curve, though single readings scatter; no compound was filed as active;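 further: 0% = full activity with enzyme and -100% = basal without enzyme; dose as in the result columns while the protocol names 77 µM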
miR-21 FLuc: raises the signal of a miR-21 reporter | HeLa miR-21 FLuc reporter, luciferase, 48 h | Potency, µM (top dose mostly 38.3 µM), inactives show at the top dose reporter change, positive = more light | 340,000 tested, under 10 active | AID 2288; active = well fitted rising curve with a large enough effect; inconclusive = small, poorly fitted or top-dose-only effect; inactive = no such curve, though single readings can be large or run the other way;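 further: % of control where 0% means no effect; miR-21 action dims this reporter so a rising signal means less miR-21 action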
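HeLa cells stably expressing CMV-driven firefly luciferase with a downstream miR-21 binding sequence, endogenously expressing miR-21, were treated with titrations (up to about 40uM final) for 48 hours at 37 degree Celsius. Luciferase luminescence was read after lysis.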
Rango complex inh: inhibitors of Rango-importin beta complex formation; Q14974; Rango CFP/YFP FRET sensor + importin beta, 45 min; Potency, µM (top dose mostly 92.2 µM), for inactives: top-dose inhibition of complex formation; 0.031% of 340,000 active; active = rising FRET ratio curve, often small or poorly fitted; inconclusive = mostly compound fluorescence or quenching in the first reads; inactive = flat curves in all reads;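 further: potency means the concentration at half of the fitted maximal effect; 0% = DMSO wells and 100% = buffer wells lacking importin beta; nearly all actives have a fitted effect of over 15% in size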
Target sequence (Q14974 whole entry, looked up): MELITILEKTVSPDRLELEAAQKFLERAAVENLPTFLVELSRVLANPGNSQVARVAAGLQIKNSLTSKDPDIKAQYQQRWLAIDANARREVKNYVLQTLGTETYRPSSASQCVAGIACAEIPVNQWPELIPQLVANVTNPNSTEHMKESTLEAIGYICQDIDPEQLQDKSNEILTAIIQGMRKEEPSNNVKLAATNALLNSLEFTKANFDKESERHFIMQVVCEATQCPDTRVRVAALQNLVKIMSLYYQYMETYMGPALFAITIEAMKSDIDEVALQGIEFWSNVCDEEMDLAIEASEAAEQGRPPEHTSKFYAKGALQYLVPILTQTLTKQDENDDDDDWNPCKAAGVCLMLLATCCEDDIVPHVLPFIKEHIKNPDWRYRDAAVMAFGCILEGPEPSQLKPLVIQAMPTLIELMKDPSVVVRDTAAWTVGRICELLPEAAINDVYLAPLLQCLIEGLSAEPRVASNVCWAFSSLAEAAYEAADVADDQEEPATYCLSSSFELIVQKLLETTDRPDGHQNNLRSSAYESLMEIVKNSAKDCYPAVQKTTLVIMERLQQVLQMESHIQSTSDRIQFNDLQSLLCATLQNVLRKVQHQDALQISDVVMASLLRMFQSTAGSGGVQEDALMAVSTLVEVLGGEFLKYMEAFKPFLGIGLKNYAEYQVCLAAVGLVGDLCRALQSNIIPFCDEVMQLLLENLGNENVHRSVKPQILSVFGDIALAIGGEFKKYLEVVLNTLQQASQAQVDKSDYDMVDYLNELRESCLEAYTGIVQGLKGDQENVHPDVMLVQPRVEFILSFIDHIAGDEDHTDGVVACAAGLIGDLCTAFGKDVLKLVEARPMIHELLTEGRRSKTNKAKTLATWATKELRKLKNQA
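Inhibition scored from the CFP 486 nm/YFP 530 nm FRET ratio 45 min after adding 0.125 microM importin beta to 50 nM Rango biosensor preincubated 5 min with compound (room temperature, PBS with DTT, Tween-20, BSA). No-importin wells as positive control.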
Rango release inh: inhibitors of RanGTP-induced Rango-importin beta complex dissociation. Biochemical FRET Rango-importin beta, RanGTP-induced dissociation. 0.071% of 340,000 active. AID 540253. Potency, µM (top dose mostly 46.1 µM), for inactives: top-dose activity change, negative = inhibition; active means falling FRET ratio curve, often poorly fitted, with flat reads before Ran was added; inconclusive means other falling curves, or compound fluorescence or quenching; inactive means flat or rising ratio curve;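 further: potency means the concentration at half of the fitted maximal effect; % of control where 0% means no effect; nearly all actives have a fitted effect of over 45% in size; -100% = wells without RanGTP and RCC1; the record marks most hits as doubtful in a second field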
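Two FRET readings bracket the reaction: one 5 min after compound meets Rango–importin beta, another 45 min after RanGTP-RCC1 (0.6 uM Ran, 0.2 uM RCC1, 2 mM GTP) is added. Only the second defines inhibition.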
* = called active by the depositor. An excerpt; the hit share may differ from the screen's.

For Cc1ccc(NC(=O)CN2C(=O)NC(C)(C3CC3)C2=O)c(C)c1 (configuration not stated) the results were Rango complex inh 4.3% and Rango release inh -21%.
For O=C(c1ccccc1F)N1CCN(c2ccccn2)CC1 the results were miR-21 FLuc 0%, Rango complex inh 2.5% and Rango release inh inconclusive.
Screening Cc1ccc(S(=O)(=O)c2c(C)cc(C)nc2Cl)c(C)c1 returned GLA inh pH 4.5 -7, miR-21 FLuc -4%, Rango complex inh -6.3% and Rango release inh 2%.
For CCOc1ccc2oc(C(=O)N3CCN(Cc4ccccc4)CC3)c(C)c2c1 the results were miR-21 FLuc -6%, Rango complex inh -0.5% and Rango release inh 8%.
CN(Cc1ccc(F)cc1)C(=O)c1sccc1-c1ccccc1 was read as miR-21 FLuc -6%, Rango complex inh 3.6% and Rango release inh 3%.
CCCn1c(CCc2ccccc2)nnc1SCC(=O)N1CCOCC1 was read as GLA inh pH 4.5 0, miR-21 FLuc -8%, Rango complex inh 1.2% and Rango release inh 0%.
For O=C(NCc1ccc(F)cc1)C1CCCN1C(=O)Nc1ccc(F)cc1 (configuration not stated) the results were miR-21 FLuc 1%, Rango complex inh inconclusive and Rango release inh -17%.
Screening CC1(C)CC(=O)/C(=C(\O)c2ccccc2)C(=NCCO)C1 returned GLA inh pH 4.5 5, miR-21 FLuc -3%, Rango complex inh -2.4% and Rango release inh 5%.
Screening Cc1cccc(N(Cc2ccccc2)C(=O)c2ccc(S(C)(=O)=O)cc2)c1 returned miR-21 FLuc 4%, Rango complex inh -3.5% and Rango release inh 5%.
`CCCn1nc(C(=O)NNC(=O)c2cc(S(=O)(=O)NC)ccc2Br)c2ccccc2c1=O` gave Rango complex inh 0.1% and Rango release inh 1%.
For NC(=O)[C@@H]1CCCN1C(=O)[C@@H](Cc1cnc[nH]1)NC(=O)[C@@H]1CCC(=O)N1 the results were Rango complex inh -1.0% and Rango release inh -8%.
For CNc1ncnc(Sc2ccc(Cl)cc2)c1[N+](=O)[O-] the results were GLA inh pH 4.5 -1, miR-21 FLuc 0%, Rango complex inh 3.1% and Rango release inh 2%.
`CC(=O)OCC(OC(C)=O)C(OC(C)=O)C(OC(C)=O)C(=O)Nc1ccccc1` (configuration not stated) gave GLA inh pH 4.5 8, miR-21 FLuc 1%, Rango complex inh 8.4% and Rango release inh -6%.
O=C(COC(=O)C1CC1)Nc1ccc2c(c1)OCO2 was read as GLA inh pH 4.5 9, miR-21 FLuc -5%, Rango complex inh -0.7% and Rango release inh 0%.
Screening CCOC(=O)C1(Cc2cccc(Cl)c2)CCCN(C(=O)c2cccc(C)n2)C1 (configuration not stated) returned GLA inh pH 4.5 -6, miR-21 FLuc 6%, Rango complex inh 3.9% and Rango release inh 1%.
CC(C)CC(=O)NC(=S)Nc1ccc(S(=O)(=O)Nc2nccs2)cc1 was read as GLA inh pH 4.5 -1, miR-21 FLuc -16%, Rango complex inh 4.7% and Rango release inh 4%.
For O=c1cn[nH]c2ccc(Br)cc12 the results were Rango complex inh -0.9% and Rango release inh -13%.
Screening COC(=O)c1ccccc1NC(=O)CSc1nnc(-c2cccnc2)o1 returned miR-21 FLuc -23%, Rango complex inh -0.2% and Rango release inh -1%.
For CN(C)CCCN(C(=O)c1ccc(C(=O)c2ccccc2)cc1)c1nc2cc3c(cc2s1)OCCO3 the results were miR-21 FLuc -20%, Rango complex inh -0.5% and Rango release inh -1%.
COC(=O)c1ccc(NS(=O)(=O)c2cc3c4c(c2)CCN4C(=O)CC3)cc1 was read as Rango complex inh 3.1% and Rango release inh -5%.

Random excerpt: 2 entries already listed, in no set order.
`CCCn1nc(C(=O)NNC(=O)c2cc(S(=O)(=O)NC)ccc2Br)c2ccccc2c1=O` gave Rango complex inh 0.1% and Rango release inh 1%.
COC(=O)c1ccc(NS(=O)(=O)c2cc3c4c(c2)CCN4C(=O)CC3)cc1 was read as Rango complex inh 3.1% and Rango release inh -5%.

The list goes on.
Screening CCN(CC)S(=O)(=O)c1ccc(Cl)c(NC(=O)COC(=O)c2c(C)noc2C)c1 returned GLA inh pH 4.5 -3, miR-21 FLuc 5%, Rango complex inh 0.1% and Rango release inh 3%.
Screening O=C(Nc1cccnc1Cl)c1cc(-c2ccc(O)cc2)on1 returned miR-21 FLuc -1%, Rango complex inh 1.4% and Rango release inh 26%.
NC(=NCCc1ccccc1)NS(=O)(=O)c1ccccc1 was read as GLA inh pH 4.5 2, miR-21 FLuc -4%, Rango complex inh -0.4% and Rango release inh 4%.
Screening COC(=O)[C@]1(Cc2ccccc2)N[C@H](CN(C)C(=O)Nc2ccc(OC)cc2)[C@@H]2C(=O)N(C)C(=O)[C@@H]21 returned Rango complex inh 0.2% and Rango release inh -1%.
For CCC(=O)c1ccc(OCC(O)CN2CCOCC2)cc1 (configuration not stated) the results were GLA inh pH 4.5 -1, miR-21 FLuc -3%, Rango complex inh 0.5% and Rango release inh 4%.
Cc1c(C(=O)N2CCOCC2)c(S(=O)(=O)Nc2cccc(Br)c2)c(C)n1C was read as miR-21 FLuc 2%, Rango complex inh 0.3% and Rango release inh 0%.
CC(C)C(=O)O/N=C1\CCS(=O)(=O)c2sccc21 was read as GLA inh pH 4.5 0, miR-21 FLuc 0%, Rango complex inh 0.8% and Rango release inh inconclusive.
CCOc1ccc(S(=O)(=O)NCCC(=O)N(CC)CC(=O)Nc2c(F)cccc2F)cc1 was read as Rango complex inh 1.8% and Rango release inh -1%.
For Cc1ccc(NC(=O)c2ccc(Cl)c(S(=O)(=O)NCc3ccco3)c2)c(O)c1 the results were Rango complex inh -1.9% and Rango release inh 2%.
For CCN(CC(=O)Nc1ccccc1C(F)(F)F)C(=O)CN1C(=O)NC2(CCCCC2)C1=O the results were Rango complex inh 6.2% and Rango release inh 1%.
For O=C(c1ccccc1F)N1CCN(c2ccccc2)CC1 the results were GLA inh pH 4.5 -6, miR-21 FLuc -4%, Rango complex inh -0.3% and Rango release inh 8%.
`CC(C)C[C@@H](CNCC(=O)[C@H](CC(C)C)NC(=O)c1[nH]cnc1C(=O)N[C@H](CN)CC(C)C)NC(=O)c1nc[nH]c1C(=O)N[C@@H](Cc1ccccc1)C(=O)O` gave Rango complex inh 3.8% and Rango release inh -13%.
Screening COc1ccc(OCc2nnc(SCC(=O)N3CCOCC3)o2)cc1 returned GLA inh pH 4.5 -1, miR-21 FLuc -6%, Rango complex inh -2.1% and Rango release inh -7%.
Screening COc1cccc(-c2cc(C(=O)N3CCN(C(=O)c4ccco4)CC3)[nH]n2)c1 returned miR-21 FLuc -4%, Rango complex inh -4.1% and Rango release inh 12%.
`CC(=O)c1ccc(NC(=O)c2noc(C)c2[N+](=O)[O-])cc1` gave miR-21 FLuc -21%, Rango complex inh -1.3% and Rango release inh 3%.
Screening CCc1ccc2c(c1)c1nnc(NN)nc1n2C returned GLA inh pH 4.5 -7, miR-21 FLuc -18%, Rango complex inh 4.6% and Rango release inh -2%.
`CCn1c(CNC(=O)c2cccc(C)c2)nnc1SCC(=O)NC1CCCC1` gave miR-21 FLuc 1%, Rango complex inh -0.7% and Rango release inh 3%.
`CN(CCO)C(=O)CCC(=O)Nc1ccc(S(N)(=O)=O)cc1` gave GLA inh pH 4.5 -5, miR-21 FLuc 0%, Rango complex inh 0.2% and Rango release inh 6%.
Screening COc1ccccc1NC(=O)C(C)OC(=O)Cc1n[nH]c(=O)c2ccccc12 (configuration not stated) returned Rango complex inh 3.0% and Rango release inh -7%.
O=C(OCC(=O)c1ccc(Cl)s1)c1ccc(CO)cc1 was read as Rango complex inh 5.1% and Rango release inh -21%.

Brought forward from above: two compounds, then new ones.
Screening COc1ccccc1NC(=O)C(C)OC(=O)Cc1n[nH]c(=O)c2ccccc12 (configuration not stated) returned Rango complex inh 3.0% and Rango release inh -7%.
O=C(OCC(=O)c1ccc(Cl)s1)c1ccc(CO)cc1 was read as Rango complex inh 5.1% and Rango release inh -21%.
`Cc1ccc(-c2cc(-c3nnc(SCC(=O)N(C)CCC#N)n3N)c3ccccc3n2)cc1` gave GLA inh pH 4.5 11, miR-21 FLuc -14%, Rango complex inh -3.9% and Rango release inh -4%.
CCN(CC)c1ccc(/C=C(/C#N)c2nc3ccccc3[nH]2)c(OC(C)C)c1 was read as GLA inh pH 4.5 -13, miR-21 FLuc -12%, Rango complex inh inconclusive and Rango release inh inconclusive.
COc1cccc(C2/C(=C(/O)c3ccc4c(c3)CC(C)O4)C(=O)C(=O)N2CC2CCCO2)c1 (configuration not stated) was read as miR-21 FLuc 0%, Rango complex inh 0.6% and Rango release inh 13%.
For COc1ccc(Cl)cc1N(CC(=O)N1CCCCC1)S(C)(=O)=O the results were GLA inh pH 4.5 6, miR-21 FLuc -1%, Rango complex inh 2.6% and Rango release inh -6%.
Screening Cc1ccc(NCc2nnc(SCC(N)=O)o2)c(C)c1 returned GLA inh pH 4.5 -9, miR-21 FLuc 1%, Rango complex inh -1.2% and Rango release inh 11%.
`CC(=O)NN1C(=O)/C(=C2/Sc3ccc(Cl)cc3N2C)SC1=S` gave miR-21 FLuc -4%, Rango complex inh inconclusive and Rango release inh inconclusive.
CSCC[C@H](NS(=O)(=O)c1ccc(C)cc1)C(=O)N1CCC(C(=O)N[C@@H](C)C(=O)O)CC1 was read as miR-21 FLuc -2%, Rango complex inh 0.7% and Rango release inh 2%.
`CC(=O)c1ccc(N(C(=O)c2csnn2)C(C(=O)NC2CCCC2)c2ccccc2)cc1` (configuration not stated) gave miR-21 FLuc -1%, Rango complex inh -0.4% and Rango release inh -8%.
`CC(C)CC(=O)NNC(=S)Nc1ccc(S(N)(=O)=O)cc1` gave GLA inh pH 4.5 2, miR-21 FLuc -4%, Rango complex inh -0.1% and Rango release inh 8%.
Screening COCCNC(=O)C(c1ccc(C)o1)N(Cc1ccc(F)cc1)C(=O)Cn1nnc2ccccc21 (configuration not stated) returned GLA inh pH 4.5 -6, miR-21 FLuc -5%, Rango complex inh 0.7% and Rango release inh -5%.
For C[n+]1ccc(C(=O)N/N=C/c2ccco2)cc1 the results were GLA inh pH 4.5 -3, miR-21 FLuc -6%, Rango complex inh 0.5% and Rango release inh 3%.
CC(Cc1cccs1)NC(=O)c1cccc(Cl)c1 (configuration not stated) was read as GLA inh pH 4.5 10, miR-21 FLuc -70%, Rango complex inh -3.6% and Rango release inh 1%.
For COc1ccc(N2CCN(C(=O)c3cc(-c4cccs4)nc4ccccc34)CC2)cc1 the results were GLA inh pH 4.5 3, miR-21 FLuc -1%, Rango complex inh -0.3% and Rango release inh 16%.
For O=C(Oc1ccc(OC(=O)N2CCCCC2)cc1)c1ccccc1 the results were GLA inh pH 4.5 2, miR-21 FLuc -4%, Rango complex inh -2.4% and Rango release inh 2%.
Screening O=C(c1nc2ccccc2s1)N1CCN(c2ccccn2)CC1 returned GLA inh pH 4.5 4, miR-21 FLuc -41%, Rango complex inh -3.8% and Rango release inh 10%.
O=C(COC(=O)C1(c2cccc(F)c2)CCCC1)NCc1ccc2c(c1)OCO2 was read as GLA inh pH 4.5 -14, miR-21 FLuc 0%, Rango complex inh -0.9% and Rango release inh 1%.
Screening O=C(CC1C(=O)NCCN1Cc1ccc(F)cc1)NC1CCCCCCC1 (configuration not stated) returned miR-21 FLuc -5%, Rango complex inh 0.4% and Rango release inh -3%.
For CC(=O)Nc1ccc(NC(=O)CNS(=O)(=O)c2ccc(C)cc2)cc1 the results were GLA inh pH 4.5 -10, miR-21 FLuc 2%, Rango complex inh -2.2% and Rango release inh 0%.
For CCN(CC)c1ccc(NC(=O)COc2ccccc2C#N)cc1S(=O)(=O)Nc1ccccc1OC the results were GLA inh pH 4.5 9, miR-21 FLuc 0%, Rango complex inh 0.7% and Rango release inh 6%.
O=C(NC(=S)Nc1ncccn1)c1ccccc1Cl was read as GLA inh pH 4.5 -2, miR-21 FLuc -46%, Rango complex inh 2.1% and Rango release inh 4%.
`COc1ccc([C@H]2[C@H](C(=O)C(C)(C)C)N3N=Cc4ccccc4C3[C@]23N=C(c2ccccc2)OC3=O)cc1OC` (some centres not stated) gave GLA inh pH 4.5 2, miR-21 FLuc -6%, Rango complex inh inconclusive and Rango release inh -1%.
